# Bioassay records: PubChem, National Center for Advancing Translational Sciences (NCATS)
# Rango-impB inh: Rango-importin beta binding inhibition; Rango CFP/YFP FRET sensor + importin beta, 45 min; Potency, µM (doses to about 92.2 µM), inactives show top-dose inhibition of complex formation; 340,000 tested, 0.031% active; active = rising FRET ratio curve, often small or poorly fitted; inconclusive = mostly compound fluorescence or quenching in the first reads; inactive = flat curves in all reads;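 note: potency is the fitted concentration of half-maximal effect; 0% = DMSO wells and 100% = buffer wells lacking importin beta; nearly all actives have a fitted effect of over 15% in size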
# Target sequence (Q14974 whole entry, looked up): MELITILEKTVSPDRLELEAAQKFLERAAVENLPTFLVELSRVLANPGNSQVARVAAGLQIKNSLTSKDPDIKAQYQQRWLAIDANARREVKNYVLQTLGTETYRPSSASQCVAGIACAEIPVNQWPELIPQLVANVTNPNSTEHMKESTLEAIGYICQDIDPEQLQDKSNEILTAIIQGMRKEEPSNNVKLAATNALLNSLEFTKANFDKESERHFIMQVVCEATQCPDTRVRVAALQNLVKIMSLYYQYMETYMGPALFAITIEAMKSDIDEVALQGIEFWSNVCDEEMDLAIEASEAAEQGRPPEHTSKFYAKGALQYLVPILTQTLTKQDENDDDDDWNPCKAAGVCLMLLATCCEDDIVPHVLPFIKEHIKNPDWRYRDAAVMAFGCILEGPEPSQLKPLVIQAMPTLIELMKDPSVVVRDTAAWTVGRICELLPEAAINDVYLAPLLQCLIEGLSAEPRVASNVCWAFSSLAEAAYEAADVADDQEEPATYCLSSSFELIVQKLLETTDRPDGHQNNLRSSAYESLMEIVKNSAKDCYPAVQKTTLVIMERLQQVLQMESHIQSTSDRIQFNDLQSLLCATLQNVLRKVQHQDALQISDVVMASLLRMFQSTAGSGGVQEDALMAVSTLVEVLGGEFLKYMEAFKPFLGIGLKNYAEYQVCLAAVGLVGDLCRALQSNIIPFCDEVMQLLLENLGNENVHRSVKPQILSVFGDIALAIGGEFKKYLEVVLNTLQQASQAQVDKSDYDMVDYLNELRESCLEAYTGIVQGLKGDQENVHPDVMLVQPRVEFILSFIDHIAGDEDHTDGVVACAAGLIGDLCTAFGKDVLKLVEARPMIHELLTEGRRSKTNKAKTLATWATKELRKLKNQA
#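 Inhibition scored from the CFP 486 nm/YFP 530 nm FRET ratio 45 min after adding 0.125 microM importin beta to 50 nM Rango biosensor preincubated 5 min with compound (room temperature, PBS with DTT, Tween-20, BSA). No-importin wells as positive control.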
# Rango dissoc inh: prevents RanGTP from dissociating the Rango-importin beta complex; Biochemical FRET Rango-importin beta, RanGTP-induced dissociation; Potency, µM (highest dose often 46.1 µM), without a hit: at the top dose activity change, negative = inhibition; 340,000 tested, 0.071% active; O95149+P62826; AID 540253; active means falling FRET ratio curve, often poorly fitted, with flat reads before Ran was added; inconclusive means other falling curves, or compound fluorescence or quenching; inactive means flat or rising ratio curve;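 note: potency is the fitted concentration of half-maximal effect; % of control where 0% means no effect; nearly all actives have a fitted effect of over 45% in size; -100% = wells without RanGTP and RCC1; the record marks most hits as doubtful in a second field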
#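 Compounds preincubate 5 min with complex of recombinant Rango and importin beta in PBS with 1 mM DTT. Ran (0.6 uM) loaded with 2 mM GTP plus 0.2 uM RCC1 starts dissociation; FRET is recorded 45 min later.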
# GLA inh pH 4.5: alpha-galactosidase A (human) inhibition, pH 4.5; P06280; purified enzyme, 4-MU-alpha-Gal fluorescence, pH 4.5; 230,000 tested, under 10 active; activity change, negative = inhibition, % at 105 µM; AID 1467; inconclusive = small, poorly fitted or top-dose-only inhibition, or a rising curve; inactive = flat fitted curve, though single readings scatter; no compound was filed as active;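 note: 0% = full activity with enzyme and -100% = basal without enzyme; dose as in the result columns while the protocol names 77 µM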
# miR-21 reporter: raises the signal of a miR-21 reporter | HeLa miR-21 FLuc reporter, luciferase, 48 h | Potency, µM (doses to about 38.3 µM), without a hit: at the highest dose reporter change, positive = more light | 340,000 tested, under 10 active; active = well fitted rising curve with a large enough effect; inconclusive = small, poorly fitted or top-dose-only effect; inactive = no such curve, though single readings can be large or run the other way;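 note: % of control where 0% means no effect; miR-21 action dims this reporter so a rising signal means less miR-21 action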
#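 Compounds were titrated across several concentrations (up to approximately 40 uM) and incubated 48 hours with HeLa miR-21-FLuc reporter cells (miR-21 target sequence downstream of FLuc, endogenous miR-21). Readout was firefly luciferase luminescence after lytic detection reagent.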
# * hit, by the source's call; ? = inconclusive; nt = no result given; & = joins results of further samples.
compound	Rango-impB inh	Rango dissoc inh	GLA inh pH 4.5	miR-21 reporter
Cc1ccnc(NS(=O)(=O)c2ccc(NC(=O)Cc3c(F)cccc3Cl)cc2)n1	0.0%	2%	nt	-23%
COc1ccc(C(=O)N/N=C(\C)c2ccc3c(c2)C2C=CCC2C(c2ccccc2)N3)cc1 (stereo not given)	?	-10%	6	-28%
CCOC(=O)c1sc(NC(=O)c2cccc(S(=O)(=O)N3c4ccccc4CC3C)c2)cc1C (stereo not given)	0.0%	-4%	5	-5%
Nc1c2c(nc3sc4c(c13)CCCC4)-c1ccccc1CC2	3.2%	24%	-1	-17%
COc1ccc(C(=O)CC(=O)c2ccccc2O)cc1OC	2.5%	1%	-7	-58%
Cc1[nH][nH]c(=O)c1C(c1ccc(N(C)C)c(Br)c1)c1c(C)[nH][nH]c1=O	-2.1%	15%	5	-2%
COCCN(Cc1cc2cc(C)ccc2nc1Cl)C(=O)Nc1ccccc1OC	0.4%	-6%	-4	1%
CCCS(=O)(=O)c1c(S(=O)(=O)CCC)c2ccccn2c1C(=O)OC	-1.6%	-14%	5	-12%
CC(=NNC(=O)CCC(=O)Nc1ccccc1Cl)c1ccco1	0.2%	1%	nt	nt
O=C(NCCC1=CCCCC1)C1CCN(S(=O)(=O)c2ccc(Br)s2)CC1	0.9%	-6%	-2	1%

# Next section
compound	Rango-impB inh	Rango dissoc inh	GLA inh pH 4.5	miR-21 reporter
c1ccc(-n2nnnc2SCc2ccccn2)cc1	-1.9%	-5%	-13	-21%
O=C(CNC(=O)OCc1ccccc1)OC(c1ccccc1)c1ccccc1	3.3%	0%	nt	nt
CC(C)COC(=O)c1ccc(NC(=O)C2C3C=CC(C3)C2C(=O)O)cc1 (stereo not given)	3.4%	-2%	1	-52%
COC(=O)c1c(C(=O)OC)c(-c2ccc(C(C)(C)C)cc2)n2c1CS(=O)C2 (stereo not given)	0.2%	-10%	-6	-6%
CCc1nc2c(cnn2-c2ccc(Cl)cc2)c(=O)n1-c1ccc(OC)cc1	-0.1%	-8%	-5	0%
COc1ccc(CCNC(=O)CSc2ccc(-c3ccncc3)nn2)cc1	-4.2%	6%	-1	-2%
CCN(CC)S(=O)(=O)c1cccc(NC(=O)C2SC(=Nc3ccc(C)cc3C)C(C(=O)NCC3CCCO3)=C2N)c1 (stereo not given)	-6.8%	-7%	-10	8%
Cn1ncc(Cl)c1C(=O)NCC1CCCO1 (stereo not given)	2.4%	33%	nt	4%
NC(=O)C(c1ccc(Cl)cc1)c1ccc(Sc2ccccc2)nn1 (stereo not given)	4.8%	4%	-9	0%
CC(C)c1cc(NC(=O)CCl)on1	1.9%	-14%	6	28%

# Ordered by molecular weight (largest number first): part of the list above
compound	Rango-impB inh	Rango dissoc inh	GLA inh pH 4.5	miR-21 reporter
COC(=O)c1c(C(=O)OC)c(-c2ccc(C(C)(C)C)cc2)n2c1CS(=O)C2 (stereo not given)	0.2%	-10%	-6	-6%
COc1ccc(CCNC(=O)CSc2ccc(-c3ccncc3)nn2)cc1	-4.2%	6%	-1	-2%
NC(=O)C(c1ccc(Cl)cc1)c1ccc(Sc2ccccc2)nn1 (stereo not given)	4.8%	4%	-9	0%
c1ccc(-n2nnnc2SCc2ccccn2)cc1	-1.9%	-5%	-13	-21%

# Next section
compound	Rango-impB inh	Rango dissoc inh	GLA inh pH 4.5	miR-21 reporter
O=C(NCc1ccccn1)C1CN(S(=O)(=O)c2ccccc2)CCN1S(=O)(=O)c1ccccc1 (stereo not given)	?	?	1	1%
Cc1ccc(-n2nnc(-c3cc4ccccc4nc3Cl)n2)cc1	-1.6%	13%	2	-16%
O=C(Nc1ccc(F)c(Cl)c1)C1CC(=O)N(Cc2ccco2)C1 (stereo not given)	?	?	nt	nt
CCOc1ccccc1NC1=NC2CS(=O)(=O)CC2S1 (stereo not given)	0.8%	19%	0	0%
O=c1cc(CO)occ1OCc1cccc(C(F)(F)F)c1	-1.4%	-7%	-17	-8%
COc1ccc(CNC(=O)CN(C)Cc2ccc(C(C)(C)C)cc2)cc1	-4.7%	-8%	nt	0%
COc1ccc(-c2c(-c3ccsc3)oc3ccc(N4CCOCC4)cc23)cn1	4.4%	31%	nt	nt
Cc1ccc(Cn2nc(C)c(C(=O)NCC(c3ccc(F)cc3)N3CCOCC3)c2Cl)cc1 (stereo not given)	0.0%	0%	nt	nt
O=C1CCCC(=O)C1=Cc1c[nH]c2ccccc12	-3.6%	4%	nt	1%
COc1ccc(C(=O)c2c(-c3ccc(OC)cc3)oc3ccc(-c4ccc(OC)nc4)cc23)cc1	-0.1%	12%	nt	nt

# (more compounds)
compound	Rango-impB inh	Rango dissoc inh	GLA inh pH 4.5	miR-21 reporter
COc1ccc(CNc2nc3ccccc3n2C(C)C)c(O)c1	-2.5%	-7%	nt	-1%
C[C@H]1CN([C@@H](C)CO)C(=O)c2cccc(NC(=O)c3nc4ccccc4s3)c2O[C@H]1CN(C)C(=O)Nc1ccc(F)cc1	-0.1%	-1%	nt	nt
CC1(C)CN=C(N(Cc2ccccc2)C(=O)Nc2ccccc2)S1	-1.2%	0%	1	-56%
OC1(c2cccc(C(F)(F)F)c2)CCN(c2ccc(-c3ccccc3)nn2)CC1	-1.0%	1%	-5	-57%
COCCSc1nnc(NS(=O)(=O)c2ccc(C)cc2)s1	-1.2%	10%	-10	-4%
Cc1cccc(Nc2ccccc2C(=O)OCC(=O)N2CCOCC2)c1C	1.6%	-2%	-3	-6%
CCOC(=O)c1sc(=NC(=O)c2ccc(OC)c(OC)c2)n(C)c1C	1.5%	12%	6	-28%
COC(=O)c1ccc2c(c1)nc(C)n2CCO	-2.9%	-7%	5	-13%
C=CCOc1c(CNc2ccc(C(=O)O)cc2)cccc1OC	7.6%	4%	-8	-27%
CCc1ccc(N(C(=O)c2csnn2)C(C(=O)NC(C)(C)C)c2ccccn2)cc1 (stereo not given)	-1.1%	11%	4	-30%

# Carrying on:
compound	Rango-impB inh	Rango dissoc inh	GLA inh pH 4.5	miR-21 reporter
CCC/C=C(\CCC)C(NS(=O)(=O)c1cccc2cccnc12)c1ccc(C(=O)OC)cc1 (stereo not given)	-5.0%	-14%	-5&-10	-3%
Cc1ccc(C(C)NC(=O)COC(=O)C2=COCCO2)cc1C (stereo not given)	-0.7%	-11%	nt	nt
CSc1ncc(C(=O)Nc2cccnc2)c(C(F)(F)F)n1	-0.5%	-10%	nt	4%
Cc1cc(SCC(=O)N/N=C/c2ccc(C(=O)O)cc2)nc2ccccc12	1.9%	-1%	nt	-4%
COc1cccc(CN(CCC(C)C)S(=O)(=O)c2cc(Br)ccc2Br)c1	-4.0%	8%	nt	nt
Cc1cccnc1NC(=O)C1CCC1	-0.4%	-6%	nt	0%
CCNC(=O)c1c(NC(=O)c2cc(-c3cc(C)ccc3O)n[nH]2)sc2c1CCCC2	-1.6%	3%	-7	-1%
COc1ccc(NC(=S)NCc2ccc(F)cc2)cc1	0.4%	-14%	nt	-7%
CC12CCC(=O)N1C(C(=O)N1CCN(c3ccccc3)CC1)CS2 (stereo not given)	-5.7%	1%	nt	nt
Cc1ccc(-n2c(SCC(=O)Nc3nccs3)nc3c(c2=O)SCC3)cc1	2.0%	-3%	2	-6%

# The list goes on.
compound	Rango-impB inh	Rango dissoc inh	GLA inh pH 4.5	miR-21 reporter
CCOC(=O)c1c(O)c2c([nH]c1=O)CCCC2	-0.6%	8%	nt	-2%
O=C(CN1CCSC1=O)Nc1ccc(N2CCOCC2)cc1	-2.1%	-6%	nt	nt
COc1cc(C(=O)O)ccc1OCc1c(C)noc1C	5.5%	15%	5	-4%
O=C(N/N=C/c1ccccc1O)c1cccc2ccccc12	?	1%	nt	13%
OCCNc1nc2ccccc2n1-c1ncnc2sc3c(c12)CCC3	3.3%	-6%	1	20%
O=Cc1cn[nH]c1-c1ccccc1	?	-8%	-8	6%
CCN(CC)c1ccc(C2C(C(=O)Nc3ccccn3)=C(C)NC3=C2C(=O)CC(C)(C)C3)cc1 (stereo not given)	?	?	-8	-10%
CC(C)(C)c1ccc(OCC(=O)NCC(c2cccs2)N2CCOCC2)cc1 (stereo not given)	0.5%	-8%	nt	nt
CN(C)S(=O)(=O)c1ccc(N2CCCC2)c(C(=O)NCC2CCCO2)c1 (stereo not given)	0.3%	4%	nt	nt
NS(=O)(=O)c1cc(C(=O)Nc2ccc3c(c2)CCC3)ccc1Cl	?	0%	nt	-45%

# Molecules from the list above that have a tert-butyl group:
compound	Rango-impB inh	Rango dissoc inh	GLA inh pH 4.5	miR-21 reporter
COC(=O)c1c(C(=O)OC)c(-c2ccc(C(C)(C)C)cc2)n2c1CS(=O)C2 (stereo not given)	0.2%	-10%	-6	-6%
COc1ccc(CNC(=O)CN(C)Cc2ccc(C(C)(C)C)cc2)cc1	-4.7%	-8%	nt	0%
CCc1ccc(N(C(=O)c2csnn2)C(C(=O)NC(C)(C)C)c2ccccn2)cc1 (stereo not given)	-1.1%	11%	4	-30%
CC(C)(C)c1ccc(OCC(=O)NCC(c2cccs2)N2CCOCC2)cc1 (stereo not given)	0.5%	-8%	nt	nt

# Carrying on:
compound	Rango-impB inh	Rango dissoc inh	GLA inh pH 4.5	miR-21 reporter
Cc1nn(-c2ccccc2)c2c1C(c1ccncc1)C(C#N)=C(N)O2 (stereo not given)	0.2%	0%	5	1%
O=C(O)c1ccc(N2C(=O)C3C4c5ccccc5C(Br)(c5ccccc54)C3C2=O)cc1 (stereo not given)	-4.7%	-18%	-9	-1%
N#CC1=C(SCc2ccccc2)NC(=O)CC1c1cccc(O)c1 (stereo not given)	0.3%	9%	6	5%
COc1ccc(C(CNc2ncnc3sc(C)c(C)c23)N(C)C)cc1 (stereo not given)	-4.5%	21%	nt	-7%
CC(=S)/C=C1\Sc2ccccc2N1C	2.4%	1%	1	-3%
COc1ccc(NC(=S)NN2CCN(C)CC2)cc1OC	2.4%	2%	-4	-4%
COc1cc(NC(=O)Cn2nnc(-c3ccncc3)n2)cc(OC)c1	-1.8%	-8%	-11	-7%
Cn1cccc1/C=C1\SC(=O)N(c2ccccc2)C1=O	?	?	0	-62%
CN(Cc1ccccc1)C(=O)Cn1c(=O)c2cccn2c2cccnc21	-0.6%	12%	nt	-9%
CC1OC(c2ccccc2)OC2COC(c3ccccc3)OC12 (stereo not given)	3.6%	-9%	nt	nt

# Later entries:
compound	Rango-impB inh	Rango dissoc inh	GLA inh pH 4.5	miR-21 reporter
Cc1nnc(NC(=O)c2cccc(S(=O)(=O)N3CCOCC3)c2)s1	0.7%	1%	-4	0%
COc1ccc(OCCN2CCN(C(=O)c3ccc(OC(F)F)c(OC)c3)CC2)cc1	-0.4%	13%	nt	16%
c1ccc(C[C@H]2CNCCN2CC2CCCCC2)cc1	2.5%	2%	nt	nt
CN(CCc1ccccc1)C(=O)c1cccc(NC(=O)Cc2cccc(NC(=O)C3CCN(C(=O)C4CCCCC4)CC3)c2)c1	-2.6%	-7%	nt	nt
COc1ccc(S(=O)(=O)Nc2nnc(Cc3ccc(OC)c(OC)c3)s2)cc1	4.4%	-4%	4	-9%
O=C1CC(N2CCN(Cc3ccccc3)CC2)C(=O)N1 (stereo not given)	-4.3%	-15%	4	-1%
O=C(Nc1ccc(-c2cnco2)cc1)c1ccc(Cl)cc1	-0.4%	3%	4	-25%
O=C(Nc1ccccc1N1CCOCC1)c1cc(-c2ccco2)nc2ccccc12	-0.1%	14%	-1	13%
O=C(COC(=O)c1cc[n+]([O-])cc1)Nc1ccc(F)c([N+](=O)[O-])c1	-2.7%	-27%	5	-1%
CCOC(=O)C1CCN(C(=O)c2cc3c(s2)-c2ccccc2OC3)CC1	-3.0%	-12%	nt	-54%

# The list goes on:
compound	Rango-impB inh	Rango dissoc inh	GLA inh pH 4.5	miR-21 reporter
CNC(=O)N(c1ccccc1)c1ccccc1	4.3%	-1%	-9	-6%
CC1(C(=O)N2CC3(CC(c4ccccc4)=NO3)C[C@H]2C(=O)NCC(N)=O)CC1 (stereo not given in full)	4.1%	-2%	7	-4%
Cn1nc(C(F)(F)F)c(-c2ccccc2)c1NC(=O)c1ccco1	0.2%	-9%	-8	3%
O=C(NCc1ccco1)c1nc2ccccc2s1	?	6%	-3	-29%
CCn1nnc(NC(=O)c2cccc(-c3cc4ccccc4oc3=O)c2)n1	0.2%	6%	5	-26%

# A portion of the library. The share of hits here may be higher or lower than overall.
